FGF22 binding: FGF22 (human) thermal shift binding. calls only at 9.99 µM. Q9HCT0. recombinant FGF22 thermal shift, SYPRO orange fluorescence; percent of sucrose octasulfate shift, DMSO zero. actives 1.5% (n = 340,000);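 active = melting point raised past a set limit in the mean and every replicate; three in four hits are not shown here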
ALR inh: inhibitors of human sulfhydryl oxidase ALR; inhibition, % (test concentration not listed); purified ALR, DTT oxidation, H2O2 HRP-luminol luminescence; P55789; actives 3.8% (n = 290,000); AID 485317;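 active = mean and each replicate at 75% or more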;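 also: stock transfer was 7.5 nL into about 7.5 µL; 0% = neutral wells and 100% = wells with inactivated enzyme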
HNF4A DNA FP: change in binding of human HNF4 alpha to DNA; actives 0.3% (n = 360,000); AID 1224865; activity change, % at 10 µM; HNF4a-FITC DNA binding, fluorescence polarization, 1 h; P41235; in the data active = activity change above about 30%, passing the limit was not always enough;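 also: controls were the assay level and a saturating level of protein; the project sought stronger binding though the title names inhibitors; some compounds called inactive have numbers as strong as hits; positive values seem to mean higher polarization but the record does not say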
LANA-H2A inh: blocks KSHV LANA binding to histone H2A/H2B. cell-free LANA-H2A/H2B peptide, fluorescence polarization. Q9QR71. actives 0.6% (n = 320,000). AID 2629. inhibition, % (no concentration beside the values); in the data active = inhibition mostly above about 10%, no sharp cut-off; inactive = mostly below about 6.7%;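 also: stock transfer was 7.5 nL into about 10 µL; 0% = median of vehicle wells and 100% = median of positive control wells; one replicate is shown; the record names a cut of 25% in any replicate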
Target sequence (Q9QR71 whole entry, looked up): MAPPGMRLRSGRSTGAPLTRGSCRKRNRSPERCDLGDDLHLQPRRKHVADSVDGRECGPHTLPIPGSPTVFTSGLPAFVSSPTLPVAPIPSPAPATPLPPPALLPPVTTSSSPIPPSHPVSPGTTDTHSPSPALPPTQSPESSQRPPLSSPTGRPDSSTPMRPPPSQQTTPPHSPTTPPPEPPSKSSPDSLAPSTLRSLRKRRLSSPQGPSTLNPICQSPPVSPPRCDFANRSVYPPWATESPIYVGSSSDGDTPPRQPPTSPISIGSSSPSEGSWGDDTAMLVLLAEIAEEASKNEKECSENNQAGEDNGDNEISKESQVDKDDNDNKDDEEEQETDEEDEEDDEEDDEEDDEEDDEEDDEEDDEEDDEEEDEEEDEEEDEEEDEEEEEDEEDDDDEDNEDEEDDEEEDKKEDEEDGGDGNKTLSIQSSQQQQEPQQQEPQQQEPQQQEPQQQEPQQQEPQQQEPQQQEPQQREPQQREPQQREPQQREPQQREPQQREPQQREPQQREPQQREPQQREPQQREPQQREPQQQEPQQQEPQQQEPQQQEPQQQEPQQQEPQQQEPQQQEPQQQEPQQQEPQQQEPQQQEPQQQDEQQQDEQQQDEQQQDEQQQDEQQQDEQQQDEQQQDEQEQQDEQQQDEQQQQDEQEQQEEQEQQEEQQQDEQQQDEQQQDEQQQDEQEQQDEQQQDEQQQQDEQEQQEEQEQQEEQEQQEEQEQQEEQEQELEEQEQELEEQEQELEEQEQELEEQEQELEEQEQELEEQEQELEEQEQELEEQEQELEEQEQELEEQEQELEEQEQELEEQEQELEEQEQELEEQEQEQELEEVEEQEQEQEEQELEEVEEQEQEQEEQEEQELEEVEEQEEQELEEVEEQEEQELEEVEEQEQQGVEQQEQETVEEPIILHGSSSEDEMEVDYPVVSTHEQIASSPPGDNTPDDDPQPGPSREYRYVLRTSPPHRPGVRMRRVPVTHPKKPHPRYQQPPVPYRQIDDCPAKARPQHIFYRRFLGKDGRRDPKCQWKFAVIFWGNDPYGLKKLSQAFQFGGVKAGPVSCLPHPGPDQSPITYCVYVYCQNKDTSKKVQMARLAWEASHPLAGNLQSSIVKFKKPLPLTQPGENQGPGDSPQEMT
B2AR ag: activates human beta-2 adrenergic receptor causing internalization; P07550; Am2.2-beta2AR cells, FAP receptor internalization, flow cytometry; reference of the scale not given here; AID 504454; actives 0.43% (n = 340,000); response, % (test concentration not listed);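 active = response above a set limit, near 3 SD of response in nonfluorescent compounds, cut at about 42% in these data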;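 also: stock transfer was 100 nL into about 11 µL; a reference agonist was the positive control; negative values mostly stem from fluorescent compounds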
UCH37 DUB inh: inhibitors of human deubiquitinating enzyme UCH37; Q9Y5K5; actives 0.33% (n = 330,000); inhibition, % (no concentration beside the values); purified proteasome/UCH37, Ub-AMC cleavage fluorescence;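 active = mean of two replicates above 20%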;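 also: 0% = compound-free wells with enzyme and 100% = wells lacking proteasome; stock transfer was 100 nL into about 20 µL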
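Material: human UCH37 enzyme supplied as purified proteasome complex. Measure: % inhibition of Ub-AMC cleavage fluorescence. Medium: pH 7.4 Tris-HCl (50 mM) with ovalbumin, ATP-MgCl2, DTT. Times: 30 min preincubation with enzyme, 25 min cleavage at room temperature. Detection: AMC fluorescence intensity at 355/460 nm.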
Ecoli growth: E. coli growth inhibition; AID 1053175; Escherichia coli growth, OD600, 23 h; hits give low values; OD600 absorbance (concentration not given with the values); actives 0.21% (n = 330,000);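 active = OD600 absorbance below the run mean of sample wells minus 3.6 SD, in any replicate, cut at about 0.56 in these data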;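 also: stock transfer was 300 nL into about 60 µL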
Numbers without * were called inactive; i = inactive; x = not tested or not shown. Some of the compounds tested; count on the stated rates, not on these rows.

Values run as follows: FGF22 binding	ALR inh	HNF4A DNA FP	LANA-H2A inh	B2AR ag	UCH37 DUB inh	Ecoli growth
- O=C1C=C(c2ccc(Oc3ccccc3)cc2)C[C@@H](c2ccc3c(c2)OCO3)C1
 : i	-25	3.8	6.2	-3	3.1	x
- COc1ccc(CNC(=O)c2sccc2-c2ccccc2)cc1OC
 : i	-6	5.2	-35	1	-2.5	0.74
- C[C@H]1CN(S(=O)C(C)(C)C)[C@@H](CCO)/C1=C\c1ccccc1 (some centres undefined)
 : i	x	2.4	x	-2	x	x
- CCCCn1c(NCc2ccccc2O)nc2ccccc21
 : i	98*	-0.9	3.5	-13	3.6	0.68
- COP(=O)(OC)C(Nc1cc(Cl)cc(Cl)c1)c1cccc(O)c1 (centres undefined)
 : i	x	-0.6	-1.8	7	1.3	0.66
- O=C(Cn1cccc1C(=O)c1ccccc1)NCCC1=CCCCC1
 : i	7	2.4	-0.8	-1	5.4	0.71
- CCc1ccc(CN(C)Cc2nc(COc3ccccc3)no2)nc1
 : i	-4	5.6	1.7	-3	-0.9	0.69
- COc1ccccc1C/C(N)=N/OC(=O)COc1ccc2ccccc2c1
 : i	-15	0.6	5.3	7	1.2	0.71
- O=P(O)(C(O)c1ccccc1)C(O)c1ccccc1 (centres undefined)
 : i	-2	-2.6	-1.0	8	0.8	0.65
- Cc1cc(=O)oc2cc(OCC(=O)N3CC(C)OC(C)C3)ccc12 (centres undefined)
 : x	0	x	-4.8	x	-23	0.78
- CCOC(=O)C1=C(C)N(c2ccc(OC)cc2)C(=O)/C1=C\c1ccc(O)c(OCC)c1
 : i	8	0.7	-1.8	8	x	x
- O=C(Nc1ccccc1Cl)N(Cc1nc2ccccc2c(=O)[nH]1)Cc1cccs1
 : x	-3	-3.3	2.3	-11	1.5	0.72
- O=C(O)c1csc(-c2ccccc2)n1
 : i	2	-2.7	-3.1	-3	-4.0	0.67
- O=C(CNCc1cccs1)Nc1cc(S(=O)(=O)N2CCCC2)ccc1Cl
 : i	0	-0.6	-4.7	11	2.2	0.7
- Cc1cc(C)c(S(C)(=O)=O)c(N(C)NC(=O)c2c(F)cccc2F)n1
 : i	-7	2.3	-4.1	-11	2.1	0.68

The last 2 compounds of the part above open the next one:
Values run as follows: FGF22 binding	ALR inh	HNF4A DNA FP	LANA-H2A inh	B2AR ag	UCH37 DUB inh	Ecoli growth
- O=C(CNCc1cccs1)Nc1cc(S(=O)(=O)N2CCCC2)ccc1Cl
 : i	0	-0.6	-4.7	11	2.2	0.7
- Cc1cc(C)c(S(C)(=O)=O)c(N(C)NC(=O)c2c(F)cccc2F)n1
 : i	-7	2.3	-4.1	-11	2.1	0.68
- COc1ccc(S(=O)(=O)NCCCCC(=O)O)cc1C(=O)O
 : i	-3	3.8	-6.7	1	1.9	0.69
- O/N=C1\CCCc2c1nc(-c1ccccc1F)n2O
 : i	5	-4.0	0.2	6	x	x
- Cc1oc2cc(OCc3cnn(-c4ccccc4)c3)ccc2c(=O)c1Oc1ccccc1F
 : i	x	2.3	1.7	-6	1.4	0.73
- CC1CC(C)CN(C(=O)C2CCCN(S(=O)(=O)c3cnc[nH]3)C2)C1 (centres undefined)
 : i	-7	-2.4	3.7	3	1.2	0.69
- O=S(NCc1ccco1)C12CC3CC(CC(C3)C1)C2 (centres undefined)
 : i	-3	2.2	-5.7	3	0.3	0.7
- Cc1cc(C)c2c(n1)sc1c(=O)n(Cc3ccc(F)cc3)cnc12
 : i	-14	-0.9	-2.8	-1	0.1	0.68
- O=C(NCCN1CCOCC1)Nc1ccc(Cl)cc1
 : x	-7	0.5	6.8	-1	0.5	0.69
- CCCSc1nnc(CN2CCOCC2)n1C
 : x	-9	-6.4	-11	1	1.0	0.75
- c1ccc(Cc2noc(CN3CCCN(C4Cc5ccccc5C4)CC3)n2)cc1
 : i	-56	2.5	-7.0	6	0.2	0.69
- Cc1cnc(C(=O)N2CCN(S(=O)(=O)c3ccc(F)c(F)c3F)CC2)cn1
 : i	x	4.9	3.0	3	1.2	0.7
- CCN(CC)S(=O)(=O)c1cccc(C(=O)NNC(=O)c2ccc3[nH]c(=O)c(=O)[nH]c3c2)c1
 : i	-3	-1.1	3.5	7	-9.0	0.71
- CC(C)CN(C(=O)COC(=O)c1ccc(Cl)nc1)c1c(N)n(Cc2ccccc2)c(=O)[nH]c1=O
 : i	2	6.8	7.1	-20	x	x
- COC(=O)c1c(NC(=O)CN2CCC3(O)CCCCC3C2c2ccccc2OC)sc(C)c1C (centres undefined)
 : i	-19	-1.5	1.8	7	2.7	0.74
- O=C(c1ccc(F)cc1)C1CCN(C(=O)c2ccc(F)cc2)CC1
 : i	x	0.7	-2.6	-1	5.1	0.65
- CC1=C(C(=O)OCc2ccccc2)C(c2cccnc2)n2nnnc2N1 (centres undefined)
 : x	1	-0.4	-10	-2	1.9	0.72
- CC(=O)N1CCN(C(=O)C2(NC(=O)Nc3cccc(F)c3)CCCCC2)CC1
 : i	1	-2.1	-6.9	1	1.7	0.7
- CC(NS(=O)(=O)c1ccccc1Cl)C1CC2CCC1C2 (centres undefined)
 : i	-5	-1.5	0.0	1	5.8	0.67
- Cc1nnc(NC(=O)Nc2ccc(Cl)c(Cl)c2)s1
 : x	-19	-3.8	0.8	8	3.2	0.69
- CSCCC(NS(=O)(=O)c1ccccc1)C(=O)Nc1nccs1 (centres undefined)
 : i	x	3.3	x	11	0.4	0.62
- Cc1ccc(N(C(=O)c2snc(C(N)=O)c2N)C(C(=O)NCC2CCCO2)c2ccc(C)o2)c(C)c1 (centres undefined)
 : i	x	-1.8	4.2	-8	-166	0.72
- COc1ccc(NC(=O)CSc2nnnn2-c2ccc(OC)cc2)cc1
 : x	-4	1.1	6.2	-7	2.0	0.72
- O=C(c1c(F)cccc1F)N(Cc1ccccn1)C1CC1
 : x	2	0.4	1.4	-2	1.0	0.74
- CC(C)C(=O)Nc1ccc(NC(=S)NC(=O)c2cc3ccccc3o2)cc1
 : i	6	0.0	-2.5	1	2.7	0.66
- Cc1ccc(C(=O)C[n+]2ccccc2)cc1
 : i	13	2.9	3.0	-4	5.4	0.69
- COc1ccc(C2CC(C(F)(F)F)n3nc(C(=O)O)c(Br)c3N2)cc1 (centres undefined)
 : x	4	-1.5	-1.6	10	0.0	0.71
- CN(c1ccc(C(=O)Nc2ccccc2C(=O)N2CCCC2)cc1)S(C)(=O)=O
 : x	-3	-0.4	4.2	-2	4.2	0.78
- O=C(O)CNS(=O)(=O)c1cc(Cl)c(Cl)cc1Cl
 : x	-2	-1.0	-2.7	0	-3.4	0.73
- COc1ccccc1S(=O)(=O)Nc1cccc(-c2nnc3n2CCCCC3)c1
 : x	-14	4.2	-0.4	0	-0.3	0.66
- O=C(COC(=O)C1=COCCO1)Nc1ccc(Cl)cn1
 : i	-1	2.1	3.0	-4	-10	0.65
- Cc1cc(C)cc(C(=O)N2CC(C)SC2=Nc2cccc(S(=O)(=O)N(C)C)c2)c1 (centres undefined)
 : i	-2	-3.7	-3.4	2	2.1	0.7
- O=C(CNC(=O)c1ccc([N+](=O)[O-])cc1)N/N=C\c1ccc(OC(=O)c2ccccc2)cc1
 : x	6	-5.5	-4.9	2	x	x
- CCC(C)[C@H](NC(=O)C1CCN(C(=O)[C@H](Cc2ccccc2)NC(=O)OC(C)(C)C)CC1)C(=O)O (some centres undefined)
 : i	-2	0.6	-8.5	5	2.1	0.65
- COc1ccc(C2CC(c3ccccc3)=NN2c2ccc(Cl)c(C(=O)O)c2)cc1 (centres undefined)
 : i	98*	-3.1	-0.7	6	i	0.69
- COC(=O)c1cccc(NC(=O)CSc2nnc(-c3ccco3)o2)c1
 : i	-4	-4.5	1.8	14	3.3	0.7
- S=C(c1cn(Cc2ccccc2)c2ccccc12)N1CCOCC1
 : i	7	-1.2	-0.3	3	3.5	0.7
- O=C(NCc1ccc2c(c1)OCO2)c1c(O)c2cccc3c2n(c1=O)CCC3
 : x	-7	-3.5	-0.4	5	-0.2	0.73
- O=C(CN(c1ccccc1)S(=O)(=O)c1ccccc1)N1CCOCC1
 : i	-1	-1.7	1.8	-11	4.2	0.68
- O=C(N/N=C/C=C/c1ccccc1)c1ccncc1
 : x	-5	1.2	5.5	4	x	x
- CCC(C)N(C(=O)c1csnn1)C(C(=O)NC1CCCC1)c1c(F)cccc1Cl (centres undefined)
 : i	1	0.1	0.5	5	-1.1	0.68
- CCC(Oc1ccccc1)C(=O)Nc1ncc([N+](=O)[O-])s1 (centres undefined)
 : i	97*	-0.3	0.5	12	8.0	0.59
- Cn1cnnc1SCC(=O)Nc1ncc(C(F)(F)F)cc1Cl
 : x	-10	4.1	-4.1	-15	0.9	0.72
- CC(=O)c1ccc(OCc2cc(C(=O)N3CCCCCCC3)no2)cc1
 : i	-12	1.6	-3.6	-4	1.7	0.7
- CN(C1CCCCC1)S(=O)(=O)c1ccc(C(=O)O)cc1
 : x	-2	0.2	0.9	1	1.6	0.7
- Cc1ccc(OC(C)C(=O)N(C)Cc2ccccc2)c([N+](=O)[O-])n1 (centres undefined)
 : i	1	-1.7	5.0	-10	1.5	0.7
- Cc1cc(C)c(S(C)(=O)=O)c(S(=O)(=O)c2ccc(Cl)cc2)n1
 : x	1	-2.1	7.0	8	1.3	0.68

Four entries from above, set out differently.
smiles	FGF22 binding	ALR inh	HNF4A DNA FP	LANA-H2A inh	B2AR ag	UCH37 DUB inh	Ecoli growth
CCC(C)[C@H](NC(=O)C1CCN(C(=O)[C@H](Cc2ccccc2)NC(=O)OC(C)(C)C)CC1)C(=O)O (some centres undefined)	i	-2	0.6	-8.5	5	2.1	0.65
COc1ccc(C2CC(c3ccccc3)=NN2c2ccc(Cl)c(C(=O)O)c2)cc1 (centres undefined)	i	98*	-3.1	-0.7	6	i	0.69
COC(=O)c1cccc(NC(=O)CSc2nnc(-c3ccco3)o2)c1	i	-4	-4.5	1.8	14	3.3	0.7
S=C(c1cn(Cc2ccccc2)c2ccccc12)N1CCOCC1	i	7	-1.2	-0.3	3	3.5	0.7

Next part.
Values run as follows: FGF22 binding	ALR inh	HNF4A DNA FP	LANA-H2A inh	B2AR ag	UCH37 DUB inh	Ecoli growth
- c1ccc(-c2csc(-c3ccncc3)n2)cc1
 : i	-1	-0.5	2.5	-7	-12	0.67
- COCCCn1c(SCC(=O)NC2CCS(=O)(=O)C2)nnc1-c1ccc(Cl)cc1 (centres undefined)
 : i	-4	-2.5	-12	6	3.3	0.65
- O=C(CC(C(=O)O)c1ccccc1)Nc1cccc2ccccc12 (centres undefined)
 : x	-14	2.4	0.2	-2	4.1	0.73
- COc1ccc([C@H]2CC(=O)C=C(c3ccc(Br)c4ccccc34)C2)cc1
 : i	-1	3.2	4.2	-2	1.7	x
- O=C(COC(=O)c1ccccc1Br)NC(=O)NCc1ccccc1
 : i	-13	-1.0	1.0	-11	4.4	0.69
- Nc1nc2c(c3c1c(=O)oc1ccccc13)CCCCC2
 : x	-48	1.0	-3.0	5	-37	0.77
- COc1ccc(C2NC(=O)NC(C)=C2C(=O)Nc2cc(C)ccc2C)cc1OC (centres undefined)
 : x	-8	0.3	2.8	10	1.3	0.75
- COc1ccc(CCC(=O)N2CCN(C3CCCCC3)CC2)cc1
 : x	-10	3.5	0.8	1	-1.1	0.68
- CCOC(=O)c1c(NC(=O)COC(=O)c2ccc(O)cc2)sc(C(=O)NC)c1C
 : i	x	-3.1	-4.9	7	-4.3	0.75
- CSCCC(NS(=O)(=O)c1cccs1)C(=O)NCc1ccccc1 (centres undefined)
 : i	-1	-0.5	-5.4	2	0.7	0.69
- CCOC(=O)[C@@H]1[C@H]2COc3ccc(Br)cc3[C@@H]2N2C(=O)N(c3ccc(Br)cc3)C(=O)[C@@]12C
 : i	0	-6.4	-5.0	-10	3.7	x
- COc1ccccc1-c1cc(C(=O)Nc2ccccc2SC)no1
 : x	-10	1.9	-0.8	4	-30	0.73
- C=CCN(C(=O)CSc1nc2ccsc2c(=O)n1Cc1ccccn1)c1ccccc1
 : i	-46	0.2	3.3	5	4.3	0.69
